RanGTP-Impb inh = disruptors of Ran-importin-beta complex formation – biochemical, FRET, CFP-Ran, YFP-importin-beta, homogeneous, primary screen | inhibition, % (concentration not given with the values) | hit rate 1.1% among 300,000 | cell-free CFP-Ran/YFP-importin-beta FRET ratio;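 active = most replicates above 15%; inconclusive = exactly half above 15%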;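 note: 0% = DMSO wells and 100% = Ran loaded with GDP instead of GTP; wells of about 40 µL received 100 nL stock; the first replicate is given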
Calb FLC = C. albicans growth modulation with fluconazole. C. albicans CaCi-2 (fluconazole-resistant clinical isolate) + fluconazole, Alamar Blue growth, 48 h. growth inhibition, % (concentration not given with the values). hit rate 0.57% among 300,000. AID 1979;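 active = most replicates above 75%; inconclusive = exactly half above 75%; inactive = most below 75%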;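 note: all wells also contain fluconazole at 8 µg/ml as a sub-toxic cotreatment; 0% = median of DMSO wells and 100% = median of geldanamycin control wells; wells of about 8 µL received 7.5 nL stock; the first replicate is given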
T cruzi inh = blocks replication of Trypanosoma cruzi; T. cruzi beta-gal in NIH3T3, luminescence, 90 h; inhibition, % (test concentration not listed); hit rate 1.4% among 300,000; AID 1885;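 active = mean inhibition across valid replicates above about 55%, limit read from the data; inconclusive = mean below that limit but half or more replicates reach it; inactive = mean below it, under half of replicates reach it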;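 note: signal also drops with host cell toxicity which is not excluded here; 0% = plate median of DMSO wells and 100% = zero luminescence signal; higher percent means less beta-gal luminescence so fewer parasites; stock transfer was 50 nL into about 50 µL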
AF4-AF9 inh = MLL-AF4/AF9 protein interaction inhibition; P42568; AlphaScreen, biotin-AF4 peptide binding to FLAG-AF9; inhibition, % at 10 µM; hit rate 0.47% among 350,000; AID 651704;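 active = every replicate reaching a set inhibition limit, whatever the replicate mean, cut at about 25% in these data; inconclusive = mean inhibition reaches that limit but some replicates miss it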;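 note: 0% = plate neutral control median and 100% = total signal loss; the record names both 10 and 1 µM as test concentration; the first replicate is given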
Target sequence (P42568 whole entry, looked up): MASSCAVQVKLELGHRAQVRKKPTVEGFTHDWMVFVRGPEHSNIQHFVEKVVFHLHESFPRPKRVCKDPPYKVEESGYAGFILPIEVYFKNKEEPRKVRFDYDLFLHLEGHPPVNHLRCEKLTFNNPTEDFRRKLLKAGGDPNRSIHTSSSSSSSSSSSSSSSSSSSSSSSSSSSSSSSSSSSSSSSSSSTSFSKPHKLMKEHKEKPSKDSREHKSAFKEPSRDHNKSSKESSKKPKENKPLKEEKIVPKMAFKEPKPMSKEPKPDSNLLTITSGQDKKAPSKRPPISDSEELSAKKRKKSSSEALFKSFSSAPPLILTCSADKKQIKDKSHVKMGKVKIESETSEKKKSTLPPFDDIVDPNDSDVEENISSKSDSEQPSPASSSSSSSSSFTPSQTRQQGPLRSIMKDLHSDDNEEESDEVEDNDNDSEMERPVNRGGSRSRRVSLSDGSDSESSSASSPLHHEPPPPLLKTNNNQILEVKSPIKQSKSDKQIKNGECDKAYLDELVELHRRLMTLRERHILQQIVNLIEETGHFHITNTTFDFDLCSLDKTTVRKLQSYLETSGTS
Beta cell apopt = beta cell apoptosis inhibition; protection from apoptosis, % (test concentration not listed); AID 435005; hit rate 0.8% among 300,000; INS-1E cytokine-induced death, ATP luminescence, 48 h; percent of positive-control rescue, neutral wells zero;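 active = all replicates at 75% or more, or half of them and the mean; inconclusive = half reach 75% but not the mean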;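 note: 0% = cytokine-treated negative control wells and 100% = positive control rescue; higher means more ATP so stronger rescue from cytokine killing; wells of about 40 µL received 100 nL stock; the first replicate is given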
A1 inh = inhibitors of the anti-apoptotic protein A1, read as caspase activation; MEF A1-2A-BIM cells, Caspase-Glo 3/7 luminescence, 3 h; percent of clofoctol response, vehicle zero; caspase activation, % (no concentration beside the values); hit rate 0.066% among 330,000; AID 2462;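 active = over half of replicate activation scores above 10%, or exactly half above 10 with the replicate mean above 10; inconclusive = replicate mean below 10 yet half the replicates above 10; inactive = over half of replicates below 10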;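 note: wells of about 30 µL received 50 nL stock; many hits fall short of the cut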
Vif TR-FRET = HIV-1 Vif–A3G interaction blockers – biochemical, TR-FRET, GST-Vif 1-94, biotin-A3G peptide, dose response retest, primary screen (AID 1117319); TR-FRET GST-Vif / biotin-A3G peptide binding; higher % means a stronger effect; test concentration not given here; strong numbers were not always called active; one-dose inhibition, %; IC50 in µM for titrated hits; hit rate 0.57% among 260,000;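 active = above the screen mean plus three standard deviations and confirmed in dose response; inconclusive = results disagree or hit not tested in dose response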;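 note: Vif residues 1-94 fused to GST binding biotinylated APOBEC3G peptide 110-148; 0% = full assay without inhibitor and 100% = GST in place of GST-Vif; retest series ran down from 100 µM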
rRNA inh HTS = selective bacterial rRNA inhibition in E. coli. E. coli WT GFP vs humanized-ribosome RFP mutants, fluorescence, 24 h; hits give low values; DMSO median 0, no signal -100. GFP signal change (wild-type ribosome), % (concentration not given with the values). hit rate 1.6% among 350,000;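 active = significant combined selectivity score with lowered wild-type GFP, culture density cut under 30%, mutant RFP and density less affected; inactive = any of these conditions unmet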; note: one replicate is shown; some compounds called inactive have numbers as strong as hits
rRNA inh HTS OD600 = second read-out of rRNA inh HTS, no call of its own (marks repeat the call); OD600 change, %; measured here: OD600 growth;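 optical density of the mix in the first replicate; 0 = DMSO median and -100 = no signal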
rRNA inh HTS RFP = recorded beside rRNA inh HTS, whose call it bears; RFP signal change, %; measured here: RFP humanized mutant strains;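 first replicate; 0 = DMSO median and -100 = no signal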
Starred values were filed as active, the others as inactive; ? = inconclusive; . = not tested or not shown; & = joins results of further samples. This is a subset; count on the stated rates, not on these rows.

Every second line gives: RanGTP-Impb inh	rRNA inh HTS	rRNA inh HTS RFP	Calb FLC	A1 inh	rRNA inh HTS OD600	AF4-AF9 inh	T cruzi inh	Beta cell apopt	Vif TR-FRET
1. Cc1c(CCOC(=O)c2ccc([N+](=O)[O-])cc2)sc[n+]1CC(=O)c1ccccc1
→ -2.6	-7	-3.1	-20	-0.4	-1	2.9	-1	-4	11%
2. CC1CCCC(C)N1C(=O)COC(=O)c1n[nH]c(=O)c2ccccc12 (stereo not given)
→ .	4	-1.4	.	0.5	3	2.2	.	-2	.
3. CC(NC(=O)c1ccco1)C1COc2ccccc2O1 (stereo not given)
→ 2.3	.	.	10	1.4	.	.	-2	3	14%
4. Cn1c(=O)c2c(nc(CN3CCN(C(=O)c4ccco4)CC3)n2CC(=O)C(C)(C)C)n(C)c1=O
→ -1.5	-1	0.1	17	0.7	1	-1.0	-9	0	-1%
5. Cc1cc(NC(=O)c2ccc(Cl)c(S(=O)(=O)N3CCOCC3)c2)no1
→ -4.2	13	2.0	6	0.0	19	-1.5	6	3	4%
6. Cn1cnc([N+](=O)[O-])c1SCCO
→ -1.5	11	4.7	5	-0.1	12	-1.0	0	-2	3%
7. O=C(c1ccc(S(=O)(=O)Nc2ccccc2Cl)cc1)N1CCCC1
→ .	4	0.3	.	-0.2	3	0.0	.	-3	.
8. CCOc1ncccc1C(=O)Nc1ccc(Cl)c(S(=O)(=O)N2CCCC2)c1
→ -1.4	11	-0.5	-3	1.1	6	-1.7	24	7	.
9. COc1ccc(/C=C/C(=O)NC(CCSC)C(=O)O)cc1 (stereo not given)
→ 4.2	7	2.5	-2	-0.2	19	-1.7	-1	-6	-9%
10. CCn1cc(C2N3CC4(C)CN2CC(C)(C3)C4=O)c2ccccc21 (stereo not given)
→ 0.2	6	-2.5	2	1.3	7	-5.3	-10	1	8%
11. Cc1ccccc1NC(=O)CCN1CCCC1
→ -2.1	12	0.4	-10	0.7	11	1.2	0	3	13%
12. CSCSC1=C(C#N)C(c2ccccc2Cl)C(C(C)=O)=C(C)N1 (stereo not given)
→ 5.4	.	.	12	-0.2	.	.	19	.	4%&-8%
13. COc1ccc(NC(=O)CCNC(C)=O)cc1NS(=O)(=O)c1ccc(F)cc1
→ ?	.	.	29	0.8	.	.	-14	-8	18%
14. COP(=O)(OC)c1nc(-c2ccc(C)cc2)oc1N1CCCCC1
→ -4.2	-6	0.1	-8	0.4	-3	3.6	-4	-3	2%
15. CC(=O)Nc1cccc(OCC(=O)Nc2ccc(F)cc2)c1
→ -1.2	.	.	29	-2.8	.	.	-13	-2	?
16. COCCn1c(SCC(=O)Nc2ccc(S(N)(=O)=O)cc2)nc2ccccc21
→ -2.4	.	.	0	0.2	.	.	1	5	4%
17. O=C(CSc1nnc2c(n1)[nH]c1ccc(S(=O)(=O)N3CCOCC3)cc12)Nc1ccc(F)c(F)c1
→ 2.1	-4	12	7	-0.1	-3	-15	1	-3	-5%
18. Cc1ccc(S(=O)(=O)NCC(=O)OCC(=O)N(CCC#N)c2ccccc2)cc1
→ .	14	1.7	.	-1.2	14	1.6	.	-1	-4%
19. COc1ccc(-c2cc(C(=O)Nc3cc(S(=O)(=O)N4CCOCC4)ccc3N3CCOCC3)c3ccccc3n2)cc1
→ 3.9	19	2.0	10	-0.2	17	1.6	42	8	-16%
20. Cc1cc(NC(=O)c2ccc(F)cc2)no1
→ -2.2	8	-4.3	-4	-1.5	-3	-1.8	-8	-2	.
21. Cn1nc(-c2ccccc2)c(C(=O)Nc2ccc(Cl)cc2)c1Cl
→ 1.9	.	.	-1	-1.2	.	.	12	-1	-3%
22. O=C(c1cc2c(s1)CCCC2)N1CCN(S(=O)(=O)c2ccccc2)CC1
→ 0.8	2	-0.6	-2	-0.7	0	-6.0	-5	-2	7%
23. Cc1ccc(NC(=O)CCS(=O)(=O)c2cccc3nonc23)c(Br)c1
→ -9.9	8	-1.8	3	-0.2	6	2.2	13	-1	0%
24. COCCNc1ncnc2c1cnn2Cc1ccccc1Cl
→ 2.0	-1	2.4	1	0.8	-5	0.3	-9	2	-3%
25. COc1ccc(C(C(=O)NC2CCCC2)N(CCO)C(=O)Cn2nnc(-c3ccc(C)o3)n2)cc1 (stereo not given)
→ ?	1	-1.6	1	-0.3	6	1.5	-2	-2	.
26. CC1(C)NC(=O)N(CC(=O)Nc2ccc(-n3cnnn3)cc2)C1=O
→ .	15	2.7	.	-1.8	7	-1.8	.	0	-6%
27. O=C(Cn1c(-c2cncs2)nc2ccccc21)NC1CCCC1
→ -0.2	9	-2.7	-2	0.2	-1	.	-3	-1	-3%
28. CC#CC(=O)N1CCC(n2nccc2NC(=O)c2ccc3c(c2)OCO3)CC1
→ 0.9	14	3.3	2	0.6	32	-0.6	-1	-13	1%
29. Cc1cc(Br)ccc1NC(=O)C1CSC2(C)CCC(=O)N12 (stereo not given)
→ -1.8	-2	-3.8	2	-0.4	0	0.2	-7	.	-7%
30. CC(C)C[C@@H](C(=O)NCC1CCCO1)N1C(=O)N2CCc3c([nH]c4ccccc34)[C@@]2(C)C1=O (stereo not given in full)
→ 6.8	-14	-6.3	-1	-0.8	-17	4.3	4	-1	.
31. NC(=O)C1CCN(CC(=O)Nc2ccccc2N2CCOCC2)CC1
→ -1.4	5	-2.8	4	0.9	4	-3.0	-13	-1	2%
32. C#CC(=O)N(c1ccc(OC)c(OC)c1)C(C(=O)NC1CCCC1)c1cccs1 (stereo not given)
→ ?	-28*	-4.3*	2	2.6	-1.5*	-13	26	50	12%
33. CC(C)[C@H](NC(=O)c1ccco1)C(=O)N(C)Cc1c(F)cccc1Cl
→ 0.9	-8	2.3	3	-0.5	-2	2.4	12	.	3%
34. CCOC(=O)C1CCN(S(=O)(=O)c2c[nH]c(=O)[nH]c2=O)CC1
→ 2.1	10	0.5	-6	1.0	17	0.7	-7	-7	4%
35. Cc1cc(C)c(-c2cc(C(=O)Nc3c(C)n(C)n(-c4ccccc4)c3=O)[nH]n2)c(O)c1
→ 0.9	.	.	-9	0.5	.	.	7	3	3%
36. CC(=O)N1CCN(CCS(=O)(=O)c2ccc(Br)cc2)CC1
→ .	8	-0.1	.	-0.1	2	0.9	.	-2	2%
37. Cc1c(Cl)cccc1NC(=O)CCCN1C(=O)CCC1=O
→ 0.8	.	.	-4	-0.1	.	.	11	-2	0%
38. CC(=O)Nc1ccc(S(=O)(=O)N2CCN(C(=O)c3ncoc3-c3cccc(C)c3)CC2)cc1
→ -0.4	-1	-2.0	-8	-0.6	-11	-6.5	2	-3	.
39. COc1nc(-c2ccccc2)nnc1-c1ccccc1
→ 5.4	10	0.9	?	.	14	-2.6	5	.	-6%
40. CCOCC(=O)Nc1cc(Cl)c(OC)cc1OC
→ 0.5	.	.	4	0.4	.	.	5	-6	.
41. COc1ccc(/C=N\NC(=O)c2ccccc2OC)cc1COc1ccccc1C
→ -2.6	13	0.1	11	0.4	13	-1.2	20	1	.
42. Cc1ccc(Cl)cc1NC(=O)NCc1cccnc1
→ 4.8	4	0.2	15	0.3	-3	-1.0	-1	-17	.
43. COc1ccc(NC(=O)CCN2CCCC(C)C2)cc1 (stereo not given)
→ -1.7	.	.	.	1.1	.	.	-18	-6	32%
44. CCCOc1ccc(-c2nnn(CC(=O)N3CCC(C)CC3)n2)cc1
→ -0.8	.	.	-21	0.2	.	.	4	9	?
45. CCOC(=O)c1c(-c2ccco2)csc1NC(=O)CSc1nnc(N)s1
→ 3.1	6	3.4	17	0.1	6	-1.4	-11	-6	8%
46. CC(=O)c1ccc(N2CCN(C(=O)Cn3cnc(S(=O)(=O)N4CCCCC4)c3)CC2)cc1
→ 5.2	4	1.0	-6	.	-1	-0.7	-5	.	5%
47. O=C(CNCc1cccs1)Nc1cc(S(=O)(=O)N2CCCC2)ccc1Cl
→ 3.1	-22	10	1	0.5	-16	-1.4	7	2	4%
48. COc1cccc(C2C(C(C)=O)=C(O)C(=O)N2CCc2c[nH]c3ccccc23)c1 (stereo not given)
→ 2.6	.	.	4	-0.1	.	.	9	-2	4%
49. CNC(=O)c1ccc(OC2CSC2)cc1
→ -1.5	.	.	-1	0.5	.	.	-16	-7	6%
50. CCC(C)NC(=O)CNC(=S)N(CCCN1CCOCC1)Cc1cccs1 (stereo not given)
→ -2.3	.	.	-7	0.7	.	.	3	-6	.
51. O=C(O)c1cccc(S(=O)(=O)Nc2cccc3ccccc23)c1
→ 1.8	-4	-1.7	-2	-0.5	5	-6.4	-2	-9	.
52. CCn1ncc(/C=C/C(=O)NCc2cnn(C)c2C)c1C
→ 0.4	.	.	-4	-0.6	.	.	10	-6	-4%
53. COc1cc(OC)cc(-c2c(-c3ccc(F)cc3)c3cc(-c4cccc5[nH]ccc45)ccc3n2C)c1
→ .	9	-0.9	.	-0.5	5	-3.5	.	7	.

Screens (PubChem BioAssay)
